HIV Env fusion – inhibitors of HIV-1 Env-driven cell-cell fusion, primary screen, HeLa-JRFL effector, CEM21 target cells, luciferase; AID 651610, 2012; inhibition, % at 12.3 µM; actives 1.1% (n = 360,000);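 active = mean replicate inhibition score of at least 50 and every replicate individually at or above 50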;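 also: 0% = plate neutral controls and 100% = maraviroc near 300 nM; one replicate is shown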
Yeast UUG start – modulators of yeast start codon fidelity, primary screen, whole organism, S. cerevisiae, single point, plate reader. S. cerevisiae UUG-firefly luciferase reporter, luminescence/redox ratio. activity score, % at 18.7 µM. actives 0.13% (n = 350,000);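 active = replicate mean at a twofold rise or more, about +100% in these data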;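 also: firefly luciferase made from a UUG start codon reports start codon fidelity; reporter light over untreated wells divided by growth signal over untreated wells; some hits fall short of that in this replicate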
Active calls of the source: *; [ ] = another dose, or the depositor's remark.

SMILES | HIV Env fusion | Yeast UUG start
COc1ccc(NC(=O)N(C)C[C@@H]2Oc3ccc(NS(=O)(=O)c4ccccc4)cc3C(=O)N([C@@H](C)CO)C[C@@H]2C)cc1 | -18.7[16.7 µM] | -4.4
C[C@H]1CN([C@@H](C)CO)S(=O)(=O)c2ccc(-c3ccncc3)cc2O[C@@H]1CN(C)C(=O)CN(C)C | -3.9[16.7 µM] | -1.4
C[C@@H]1CN([C@@H](C)CO)C(=O)Cc2cc(NS(=O)(=O)c3ccc(F)cc3)ccc2O[C@@H]1CN(C)C(=O)Nc1ccccc1 | -21.4[16.7 µM] | 3.5
C[C@@H]1CN([C@H](C)CO)C(=O)Cc2cc(NC(=O)Nc3ccc4c(c3)OCO4)ccc2O[C@H]1CN(C)CC1CC1 | -1.1[16.7 µM] | -20.0
Cc1noc(C)c1NC(=O)Nc1ccc2c(c1)CC(=O)N([C@H](C)CO)C[C@H](C)[C@@H](CN(C)S(=O)(=O)c1cccs1)O2 | -4.3[16.7 µM] | 3.2
C[C@@H]1CCCCO[C@H](CN(C)Cc2ccc3c(c2)OCO3)[C@@H](C)CN([C@H](C)CO)C(=O)c2cc(NS(=O)(=O)c3cccs3)ccc2O1 | -16.6[16.7 µM] | 5.6
COc1ccc(S(=O)(=O)N[C@H]2CC[C@H](CC(=O)N3CCN(c4ccccc4)CC3)O[C@@H]2CO)cc1 | 2.0[16.7 µM] | 11.9
COCC#Cc1cnc2c(c1)C(=O)N([C@@H](C)CO)C[C@H](C)[C@@H](CN(C)C)O2 | -77.4[16.7 µM] | 8.0
CCC(=O)N(C)C[C@@H]1Oc2cc(C#C[C@H](C)O)ccc2S(=O)(=O)N([C@H](C)CO)C[C@H]1C | 0.1[16.7 µM] | 13.6
Cc1noc(C)c1NC(=O)Nc1ccc2c(c1)C(=O)N([C@@H](C)CO)C[C@@H](C)[C@H](CN(C)C(=O)NC1CCCCC1)OCCCC[C@@H](C)O2 | -12.4[16.7 µM] | 11.1
O=C(C[C@@H]1C=C[C@@H](NS(=O)(=O)c2ccc(F)cc2)[C@@H](CO)O1)N1CCN(c2ccccc2)CC1 | -6.1[16.7 µM] | 1.8
Cc1ccccc1S(=O)(=O)N[C@@H]1CC[C@@H](CCNS(=O)(=O)c2cccc(F)c2)O[C@H]1CO | -8.3[16.7 µM] | 9.8
COCC(=O)N(C)C[C@H]1Oc2cc(-c3ccc(F)cc3)ccc2S(=O)(=O)N([C@H](C)CO)C[C@@H]1C | 0.4[16.7 µM] | -6.9
C[C@@H]1CN([C@@H](C)CO)S(=O)(=O)c2ccc(C#CC3(O)CCCC3)cc2O[C@@H]1CN(C)C | -25.4[16.7 µM] | 2.9
COc1ccc(CN(C)C[C@H]2Oc3ccc(NC(=O)Nc4cccc5ccccc45)cc3CC(=O)N([C@H](C)CO)C[C@H]2C)cc1 | -6.2[16.7 µM] | -1.2
C[C@@H]1CN([C@@H](C)CO)C(=O)c2cc(-c3ccccc3F)cnc2O[C@H]1CN(C)C(=O)C1CCCCC1 | 10.3[16.7 µM] | -11.2
CC(C)C#Cc1ccc2c(c1)O[C@@H](CN(C)S(C)(=O)=O)[C@H](C)CN([C@@H](C)CO)S2(=O)=O | 0.9[16.7 µM] | 8.9
O=C(Cc1ccccc1)N[C@@H]1C=C[C@@H](CC(=O)N2CCCCC2)O[C@H]1CO | -16.3[16.7 µM] | -4.4
CO[C@H]1CN(C)C(=O)c2cc(NC(=O)Nc3ccc(Cl)cc3)ccc2OC[C@@H](C)N(C)C[C@@H]1C | 7.9[16.7 µM] | 5.5
Cc1ccc(S(=O)(=O)N(C)C[C@@H]2Oc3c(NS(=O)(=O)c4ccc(Cl)cc4)cccc3C(=O)N([C@H](C)CO)C[C@@H]2C)cc1 | -18.9[16.7 µM] | -3.0
C[C@@H]1CCCCO[C@H](CN(C)C(=O)NC2CCCCC2)[C@@H](C)CN([C@@H](C)CO)C(=O)c2cc(NC(=O)C3CCCCC3)ccc2O1 | -0.2[16.7 µM] | 8.1
Cc1ccccc1S(=O)(=O)NCC[C@H]1CC[C@@H](NC(=O)C2CCCCC2)[C@@H](CO)O1 | 1.3[16.7 µM] | 9.2
COc1ccc(S(=O)(=O)Nc2ccc3c(c2)C(=O)N([C@H](C)CO)C[C@H](C)[C@@H](CN(C)C(=O)CCC(F)(F)F)OCCCC[C@H](C)O3)cc1 | -35.1[16.7 µM] | 18.3
C[C@H](O)C#Cc1ccc2c(c1)O[C@H](CN(C)C)[C@H](C)CN([C@@H](C)CO)S2(=O)=O | 6.0[16.7 µM] | -20.3
C[C@@H]1CN([C@H](C)CO)C(=O)c2cccc(NC(=O)Nc3ccccc3)c2O[C@H]1CN(C)C(=O)Nc1ccccc1 | 26.9[16.7 µM] | -5.2
C[C@@H]1CN([C@@H](C)CO)C(=O)c2cc(-c3cncnc3)cnc2O[C@@H]1CN(C)Cc1ccncc1 | 1.5[16.7 µM] | 2.4
C[C@H](CO)N1C[C@H](C)[C@@H](CN(C)C(=O)CN(C)C)Oc2ncc(-c3ccc(C#N)cc3)cc2C1=O | -13.9[16.7 µM] | 1.1
CO[C@H]1CN(C)C(=O)c2cc(NC(=O)Nc3ccccc3)ccc2OC[C@@H](C)NC[C@@H]1C | -0.6[16.7 µM] | -4.3
N#C[C@@H]1[C@@H](c2ccc(/C=C/c3ccccc3)cc2)[C@@H](CO)N1C(=O)C1CCCCC1 | 6.1[16.7 µM] | 0.1
C[C@@H]1CCCCO[C@H](CN(C)C(=O)Nc2ccc3c(c2)OCO3)[C@H](C)CN([C@@H](C)CO)C(=O)c2cc(NC(=O)c3ccccc3)ccc2O1 | -10.5[16.7 µM] | 8.3
O=C(C[C@H]1C=C[C@H](NC(=O)Nc2ccc3c(c2)OCO3)[C@@H](CO)O1)NCc1ccc2c(c1)OCO2 | 9.0[16.7 µM] | 14.1
CCCC#Cc1ccc2c(c1)O[C@@H](CN(C)C(=O)c1ccccn1)[C@@H](C)CN([C@H](C)CO)S2(=O)=O | 22.4[16.7 µM] | -7.5
C[C@H]1CN([C@@H](C)CO)S(=O)(=O)c2ccc(C3=CCCCC3)cc2O[C@H]1CN(C)C(=O)c1ccncc1 | 1.8[16.7 µM] | -4.2
C[C@@H]1CCCCO[C@H](CN(C)C)[C@@H](C)CN([C@@H](C)CO)C(=O)c2cc(NC(=O)Nc3ccc(F)cc3)ccc2O1 | 3.5[16.7 µM] | 31.2
COc1ccc(S(=O)(=O)N2C[C@@H](O)COC[C@@H]3O[C@@H](CC(=O)N[C@H]4CCN(Cc5ccccc5)C4)CC[C@H]32)cc1 | -50.5[16.7 µM] | 1.0
C[C@@H]1CCCCO[C@H](CN(C)Cc2ccc(Cl)c(Cl)c2)[C@H](C)CN([C@@H](C)CO)C(=O)c2cc(NS(=O)(=O)c3ccccc3)ccc2O1 | 57.1*[16.7 µM] | 7.9
C[C@H](CO)N1C[C@H](C)[C@H](CN(C)C(=O)CN(C)C)Oc2ncc(-c3ccc(C#N)cc3)cc2C1=O | -35.2[16.7 µM] | -2.1
CCCC#Cc1ccc2c(c1)O[C@@H](CN(C)C(=O)CC)[C@@H](C)CN([C@@H](C)CO)S2(=O)=O | -8.5[16.7 µM] | 2.8
C[C@H]1CN([C@@H](C)CO)C(=O)c2cc(C3=CCCCC3)cnc2O[C@H]1CN(C)Cc1ccc(C(=O)O)cc1 | -10.0[16.7 µM] | 2.3
CC(C)NC(=O)Nc1ccc2c(c1)C(=O)N([C@H](C)CO)C[C@@H](C)[C@H](CN(C)Cc1ccc(C(=O)O)cc1)O2 | 6.7[16.7 µM] | -4.8

Arranged by length of the SMILES (highest first): 4 of the compounds above.
SMILES | HIV Env fusion | Yeast UUG start
C[C@@H]1CCCCO[C@H](CN(C)Cc2ccc(Cl)c(Cl)c2)[C@H](C)CN([C@@H](C)CO)C(=O)c2cc(NS(=O)(=O)c3ccccc3)ccc2O1 | 57.1*[16.7 µM] | 7.9
C[C@H]1CN([C@@H](C)CO)S(=O)(=O)c2ccc(C3=CCCCC3)cc2O[C@H]1CN(C)C(=O)c1ccncc1 | 1.8[16.7 µM] | -4.2
O=C(C[C@H]1C=C[C@H](NC(=O)Nc2ccc3c(c2)OCO3)[C@@H](CO)O1)NCc1ccc2c(c1)OCO2 | 9.0[16.7 µM] | 14.1
CCCC#Cc1ccc2c(c1)O[C@@H](CN(C)C(=O)CC)[C@@H](C)CN([C@@H](C)CO)S2(=O)=O | -8.5[16.7 µM] | 2.8

Later entries
SMILES | HIV Env fusion | Yeast UUG start
CO[C@@H]1CN(C)C(=O)c2ccc(NS(=O)(=O)c3ccccc3)cc2OC[C@H](C)N(Cc2nccs2)C[C@@H]1C | -51.1[16.7 µM] | -3.9
C[C@@H]1CN([C@@H](C)CO)C(=O)Cc2cc(NC(=O)NC3CCCCC3)ccc2O[C@@H]1CN(C)C(=O)Nc1ccc2c(c1)OCO2 | 36.3[16.7 µM] | 9.7
CN1C(=O)c2cc(NC(=O)C3CCCCC3)ccc2OC[C@H]2O[C@@H](CC(=O)NC3CCCC3)CC[C@H]21 | 5.1[16.7 µM] | 9.1
COCC#Cc1cnc2c(c1)C(=O)N([C@H](C)CO)C[C@@H](C)[C@H](CN(C)C(=O)Cc1ccncc1)O2 | -9.8[16.7 µM] | 4.0
COc1ccc(NC(=O)Nc2ccc3c(c2)CC(=O)N([C@H](C)CO)C[C@@H](C)[C@@H](CN(C)S(=O)(=O)c2ccc(F)cc2)O3)cc1 | 24.1[16.7 µM] | -6.1
O=C(NCC[C@@H]1CC[C@@H](NS(=O)(=O)c2ccccc2)[C@@H](CO)O1)c1ccc2c(c1)OCO2 | 8.3[16.7 µM] | -10.3
CN(C)C(=O)C[C@@H]1C=C[C@H](NC(=O)NC2CCCCC2)[C@H](CO)O1 | -7.0[16.7 µM] | -11.6
C[C@@H]1CCCCO[C@H](CN(C)C(=O)C2CCCCC2)[C@H](C)CN([C@H](C)CO)C(=O)c2cc(NC(=O)c3ccncc3)ccc2O1 | -7.5[16.7 µM] | -5.9
C[C@H]1CN([C@@H](C)CO)C(=O)c2cc(-c3cccnc3)cnc2O[C@@H]1CN(C)C(=O)NC1CCCC1 | -36.0[16.7 µM] | -6.2
Cc1ccc(S(=O)(=O)Nc2ccc3c(c2)C(=O)N([C@H](C)CO)C[C@H](C)[C@@H](CN(C)S(=O)(=O)c2ccccc2)OCCCC[C@@H](C)O3)cc1 | -42.8[16.7 µM] | -8.2
C[C@@H]1CN([C@H](C)CO)C(=O)c2cc(-c3ccccc3F)cnc2O[C@@H]1CN(C)C(=O)NC1CCCCC1 | -23.3[16.7 µM] | -1.8
CC(C)CC#Cc1cnc2c(c1)C(=O)N([C@H](C)CO)C[C@@H](C)[C@@H](CN(C)C(=O)Cc1ccccc1)O2 | -1.4[16.7 µM] | 2.2
C[C@@H]1CN([C@@H](C)CO)C(=O)Cc2cc(NC(=O)CCC(F)(F)F)ccc2O[C@H]1CN(C)S(=O)(=O)c1ccc(Cl)cc1 | 7.0[16.7 µM] | 10.2
COc1ccc(S(=O)(=O)Nc2ccc3c(c2)CC(=O)N([C@@H](C)CO)C[C@H](C)[C@H](CN(C)S(=O)(=O)c2ccc(Cl)cc2)O3)cc1 | 9.3[16.7 µM] | -7.5
Cc1ccc(S(=O)(=O)Nc2ccc3c(c2)C(=O)N([C@@H](C)CO)C[C@@H](C)[C@H](CN(C)Cc2ccncc2)OCCCC[C@H](C)O3)cc1 | -61.0[16.7 µM] | 7.0
CC(C)NC(=O)Nc1ccc2c(c1)C(=O)N([C@H](C)CO)C[C@H](C)[C@H](CN(C)C(=O)Nc1ccccc1)O2 | 2.6[16.7 µM] | 2.3
C[C@@H]1CCCCO[C@@H](CN(C)C(=O)c2ccccc2)[C@@H](C)CN([C@@H](C)CO)C(=O)c2cc(N(C)C)ccc2O1 | -5.5[16.7 µM] | 27.8
COC(=O)C[C@@H]1CC[C@H]2[C@@H](COc3ccc(NS(=O)(=O)c4ccc(C)cc4)cc3C(=O)N2C)O1 | 11.0[16.7 µM] | 0.0
O=C1N(Cc2ccccc2)Cc2ccccc2[C@@H]2OC(c3ccc(OCCCO)cc3)=N[C@]12CCS(=O)(=O)c1ccccc1 | 40.6[16.7 µM] | 1.7
C[C@@H]1CN([C@@H](C)CO)S(=O)(=O)c2ccc(-c3cncnc3)cc2O[C@@H]1CN(C)C(=O)CC1CC1 | -1.4[16.7 µM] | 0.1
C[C@@H]1CN([C@@H](C)CO)C(=O)Cc2cc(NS(C)(=O)=O)ccc2O[C@@H]1CN(C)S(=O)(=O)c1ccc(F)cc1 | -5.8[16.7 µM] | 42.7
C[C@H](CO)N1C[C@H](C)[C@H](CN(C)S(C)(=O)=O)Oc2ncc(-c3cccnc3)cc2C1=O | -5.5[16.7 µM] | 4.6
COc1ccc(NC(=O)Nc2ccc3c(c2)C(=O)N([C@@H](C)CO)C[C@@H](C)[C@@H](CN(C)S(=O)(=O)c2ccc(OC)cc2)OCCCC[C@H](C)O3)cc1 | -5.0[16.7 µM] | -15.8
C[C@H](CO)N1C[C@H](C)[C@@H](CN(C)S(=O)(=O)c2ccc(F)cc2)Oc2ncc(C#CC3(O)CCCC3)cc2C1=O | 0.7[16.7 µM] | 17.9
CC(C)c1cn(CC[C@H]2CC[C@H](NC(=O)C3CCCC3)[C@@H](CO)O2)nn1 | 35.2[16.7 µM] | 16.6
Cc1noc(C)c1NC(=O)N(C)C[C@H]1OCCCC[C@@H](C)Oc2ccc(NC(=O)Nc3ccc(C(F)(F)F)cc3)cc2C(=O)N([C@H](C)CO)C[C@@H]1C | -0.9[16.7 µM] | -3.1

Look-ups from the results shown:
Value of COc1ccc(NC(=O)Nc2ccc3c(c2)C(=O)N([C@@H](C)CO)C[C@@H](C)[C@@H](CN(C)S(=O)(=O)c2ccc(OC)cc2)OCCCC[C@H](C)O3)cc1 in HIV Env fusion: -5.0[16.7 µM]
Value of C[C@@H]1CN([C@@H](C)CO)C(=O)Cc2cc(NS(C)(=O)=O)ccc2O[C@@H]1CN(C)S(=O)(=O)c1ccc(F)cc1 in Yeast UUG start: 42.7

Not all compounds are listed, so the mix of outcomes need not match the whole.
